Smad3 inh – Smad3/FoxH1 peptide binding inhibitors, primary screen, biochemical, TR-FRET | AID 630, 2007 | actives 0.29% (n = 88,000) | Mothers against decapentaplegic homolog 3 (Homo sapiens), P84022 | TR-FRET Smad3/Dy647-FoxH1 peptide binding, europium anti-His | inhibition, % at 25 µM;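 active = compounds that reduce the energy-transfer binding signal between the protein and its labelled peptide by more than half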;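 note: 0% = Smad3 plus labelled peptide maximal FRET and 100% = peptide-only background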
Target sequence (P84022 whole entry, looked up): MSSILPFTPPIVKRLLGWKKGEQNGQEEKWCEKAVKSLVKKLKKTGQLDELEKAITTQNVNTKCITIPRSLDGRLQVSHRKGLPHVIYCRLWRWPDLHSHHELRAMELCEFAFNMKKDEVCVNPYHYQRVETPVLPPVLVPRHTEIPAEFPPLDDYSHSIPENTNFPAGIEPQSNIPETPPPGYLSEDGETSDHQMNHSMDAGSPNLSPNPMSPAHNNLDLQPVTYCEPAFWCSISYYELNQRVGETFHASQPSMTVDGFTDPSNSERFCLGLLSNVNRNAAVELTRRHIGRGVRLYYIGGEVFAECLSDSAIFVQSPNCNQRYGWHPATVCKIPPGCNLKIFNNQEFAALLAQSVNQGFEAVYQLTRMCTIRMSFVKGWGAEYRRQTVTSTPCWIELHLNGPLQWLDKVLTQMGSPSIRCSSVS
Fibroblast inh – antiproliferative effect on LL 47 fibroblasts – human, LL 47 cells, CellTiter-Glo luminescence, primary screen; LL 47 human lung fibroblast viability, ATP luminescence; stronger effect = lower value; viability, % at 10 µM; actives 1.1% (n = 85,000); AID 719, 2007;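 active = viability at or below 50% in the single dose screen; inactive = viability above 50%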;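 note: compound exposure lasted 72 h before the ATP readout; 100% = median luminescence of untreated cell-only wells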
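Assay system: human lung fibroblast line LL 47, low passage. Input: 1,150 fibroblasts seeded per well. Times: overnight cell rest, 72 h compound treatment at 37 °C. Evaluation: % viability of median cell-only signal. Technique: luminescent ATP detection, CellTiter-Glo. Control set: cell-only wells, no compound.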
Calb biofilm kill – clotrimazole potentiators killing Candida biofilms, primary screen, with clotrimazole, Alamar Blue. AID 834, 2007. inhibition, % at 6 µM. C. albicans biofilm + clotrimazole. actives 0.14% (n = 85,000);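 active = inhibition above 20%; inactive = inhibition below 20%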;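 note: preformed 24 hr biofilms exposed to compound for 48 hr; 0% = biofilm without compound and 100% = blank killed by clotrimazole plus chlorhexidine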
sEH activator – soluble epoxide hydrolase activators, primary screen, biochemical, human sEH; activation, % at 2 µM; AID 717, 2007; purified human sEH enzymatic activity, activator screen; actives 0.04% (n = 91,000); in the data active = activation above about 37%; note: values of inactives mirror those of a sister screen read the other way
HUVEC prolif 384 – inhibitors of HUVEC proliferation, primary screen, cell-based, 384-well. CellTiter-Glo luminescence, 72 h; stronger effect = lower value. viability, % at 10 µM (by protocol). actives 1.1% (n = 86,000);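 active = viability at or below 30%; inactive = viability above 30%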;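 note: 100% = median luminescence of DMSO-only cell control wells on each plate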
An asterisk follows results filed as active; · = not tested or not shown; & = joins results of further samples; [ ] = remark or other dose. These rows are one share of the data; count on the stated rates, not on these rows.

| SMILES | Smad3 inh | Fibroblast inh | Calb biofilm kill | sEH activator | HUVEC prolif 384 |
| --- | --- | --- | --- | --- | --- |
| CCCCNc1cc(C(=O)O)cc(S(N)(=O)=O)c1Oc1ccccc1 | 4 | 102 | 6 | · | 98 |
| CC(N)(Cc1ccc(O)cc1)C(=O)O (centres undefined) | 13 | 104 | 11 | · | 103 |
| O=C(O)c1ccccc1C(=O)OCc1ccccc1 | -13 | 88 | 11 | -1 | 90 |
| COC(=O)C(N)Cc1ccc(O)c(O)c1 (centres undefined) | -7 | 111 | 7 | -5 | 83 |
| Cc1cccc(CN2CCN(C(c3ccccc3)c3ccc(Cl)cc3)CC2)c1 (centres undefined) | -2 | 96 | 2 | · | 80 |
| CC[N+](C)(C)c1cccc(O)c1 | 10 | 103 | 13 | · | 99 |
| Cn1cnc2c1c(=O)[nH]c(=O)n2C | 5 | 97 | 5 | · | 100 |
| CCCCOc1cc(C(=O)NCCN(CC)CC)c2ccccc2n1 | -5&10 | 93&83 | 7&11 | · | 83&73 |
| O=C(O)C[C@@H](O)C(=O)O | 7 | 97 | 7 | · | 94 |
| CC(C)C[C@H]1C(=O)N2CCC[C@H]2[C@]2(O)O[C@](NC(=O)[C@@H]3C=C4c5cccc6[nH]c(Br)c(c56)CC4N(C)C3)(C(C)C)C(=O)N12 (some centres undefined) | -1 | 102 | 1 | · | 69 |
| CN/C(=C/[N+](=O)[O-])NCCSCc1ccc(CN(C)C)o1 | 1 | 102 | -4 | · | 94 |
| O=C(O)c1cc(-c2ccccc2)nc2ccccc12 | 3 | 102 | 8 | · | 107 |
| CC(=O)OCC(=O)[C@@]1(O)CC[C@H]2[C@@H]3CCC4=CC(=O)CC[C@]4(C)[C@H]3[C@@H](O)C[C@@]21C | 0 | 97 | 15 | · | 101 |
| CC(=O)[C@@]1(O)CC[C@H]2[C@@H]3CCC4=CC(=O)CC[C@]4(C)[C@H]3CC[C@@]21C | 9 | 89 | 0 | · | 89 |
| O=C(NCCCO)Nc1ccc2nc(-c3ccco3)c(-c3ccco3)nc2c1 | 11 | 103 | 4 | -7 | 76 |
| Cc1cn([C@H]2C[C@H](N=[N+]=[N-])[C@@H](CO)O2)c(=O)[nH]c1=O | -9 | 100 | 12 | · | 110 |
| CCn1cc(C(=O)O)c(=O)c2cc(F)c(N3CCNCC3)cc21 | 11[fluorescence artefact?] | 91 | 22* | · | 94 |
| COc1ccc([C@@H]2Sc3ccccc3N(CCN(C)C)C(=O)[C@@H]2OC(C)=O)cc1 | -3 | 100 | 8 | · | 92 |
| COc1c(N2CCNC(C)C2)c(F)cc2c(=O)c(C(=O)O)cn(C3CC3)c12 (centres undefined) | 11[fluorescence artefact?] | 96 | 6 | · | 106 |
| CCCCNC(=O)NS(=O)(=O)c1ccc(C)cc1 | 3 | 92 | 10 | · | 104 |
| COc1ccc2c(c1)c(CC(=O)OCC(=O)O)c(C)n2C(=O)c1ccc(Cl)cc1 | 9 | 98 | 8 | · | 89 |
| Cc1ccc(C)c(OCCCC(C)(C)C(=O)O)c1 | 0 | 95 | 12 | · | 103 |
| Clc1ccc2c(c1)CCc1cccnc1C2=C1CCNCC1 | 19[fluorescence artefact?] | 97 | 1 | -1 | 76 |
| CCCC(=O)Nc1ccc(OCC(O)CNC(C)C)c(C(C)=O)c1 (centres undefined) | 4 | 97 | -1 | · | 69 |
| C[C@](N)(Cc1ccc(O)c(O)c1)C(=O)O | 8 | 100 | 12 | · | 103 |
| CN1C2CCC1CC(OC(=O)c1c[nH]c3ccccc13)C2 (centres undefined) | 2 | 97 | 11 | 15 | 109 |
| OCCN1CCN(C2Cc3cc(Cl)ccc3Sc3ccc(Cl)cc32)CC1 (centres undefined) (tested in a mixture with another compound) | -4 | 92 | 4 | -6 | 2.4* |
| CN(C)Cc1cc(C(C)(C)C)c(O)c(C(C)(C)C)c1 | -10 | 99 | 4 | · | 96 |
| CC(=O)O[C@]1(C(C)=O)CC[C@H]2[C@@H]3C[C@H](C)C4=CC(=O)CC[C@]4(C)[C@H]3CC[C@@]21C | 2 | 91 | 5 | · | 102 |
| C[C@@H]1C[C@H]2[C@@H]3C[C@H](F)C4=CC(=O)C=C[C@]4(C)[C@@]3(F)[C@@H](O)C[C@]2(C)[C@@]1(O)C(=O)CO | -5 | 91 | 8 | · | 87 |

Next section, starting with the last two of the part before.
| SMILES | Smad3 inh | Fibroblast inh | Calb biofilm kill | sEH activator | HUVEC prolif 384 |
| --- | --- | --- | --- | --- | --- |
| CC(=O)O[C@]1(C(C)=O)CC[C@H]2[C@@H]3C[C@H](C)C4=CC(=O)CC[C@]4(C)[C@H]3CC[C@@]21C | 2 | 91 | 5 | · | 102 |
| C[C@@H]1C[C@H]2[C@@H]3C[C@H](F)C4=CC(=O)C=C[C@]4(C)[C@@]3(F)[C@@H](O)C[C@]2(C)[C@@]1(O)C(=O)CO | -5 | 91 | 8 | · | 87 |
| Cc1ccc(S(=O)(=O)NC(=O)NN2CCCCCC2)cc1 | 5 | 93 | 4 | · | 91 |
| CC1(C)S[C@@H]2[C@H](NC(=O)[C@H](N)c3ccccc3)C(=O)N2[C@H]1C(=O)O | -3 | 101 | 15 | · | 115 |
| CC(COc1ccccc1)N(CCCl)Cc1ccccc1 (centres undefined) | 6 | 85 | 5 | · | 87 |
| Cn1c(SCC(=O)NC(=O)NCc2ccco2)nnc1-c1ccccc1 | -11[fluorescence artefact?] | 101 | -1 | 5 | 96 |
| Cc1ncc([N+](=O)[O-])n1CCO | -2 | 99 | 5 | · | 96 |
| CC[N+](C)(C)Cc1ccccc1Br | -6 | 98 | 14 | · | 97 |
| COC(=O)Nc1nc2ccc(C(=O)c3ccccc3)cc2[nH]1 | -7 | 50 | -3 | · | 37 |
| c1ccc(-c2ccc(C(c3ccccc3)n3ccnc3)cc2)cc1 (centres undefined) | 0 | 88 | 9 | · | 78 |

An excerpt of these results, with two lines to a compound:
Each structure is followed by: Smad3 inh	Fibroblast inh	Calb biofilm kill	sEH activator	HUVEC prolif 384
COc1ccc2c(c1)c(CC(=O)OCC(=O)O)c(C)n2C(=O)c1ccc(Cl)cc1
  9	98	8	·	89
Cc1ccc(C)c(OCCCC(C)(C)C(=O)O)c1
  0	95	12	·	103
Clc1ccc2c(c1)CCc1cccnc1C2=C1CCNCC1
  19[fluorescence artefact?]	97	1	-1	76
CCCC(=O)Nc1ccc(OCC(O)CNC(C)C)c(C(C)=O)c1 (centres undefined)
  4	97	-1	·	69
C[C@](N)(Cc1ccc(O)c(O)c1)C(=O)O
  8	100	12	·	103
CN1C2CCC1CC(OC(=O)c1c[nH]c3ccccc13)C2 (centres undefined)
  2	97	11	15	109
OCCN1CCN(C2Cc3cc(Cl)ccc3Sc3ccc(Cl)cc32)CC1 (centres undefined) (tested in a mixture with another compound)
  -4	92	4	-6	2.4*
CN(C)Cc1cc(C(C)(C)C)c(O)c(C(C)(C)C)c1
  -10	99	4	·	96
CC(=O)O[C@]1(C(C)=O)CC[C@H]2[C@@H]3C[C@H](C)C4=CC(=O)CC[C@]4(C)[C@H]3CC[C@@]21C
  2	91	5	·	102
C[C@@H]1C[C@H]2[C@@H]3C[C@H](F)C4=CC(=O)C=C[C@]4(C)[C@@]3(F)[C@@H](O)C[C@]2(C)[C@@]1(O)C(=O)CO
  -5	91	8	·	87
Cc1ccc(S(=O)(=O)NC(=O)NN2CCCCCC2)cc1
  5	93	4	·	91
CC1(C)S[C@@H]2[C@H](NC(=O)[C@H](N)c3ccccc3)C(=O)N2[C@H]1C(=O)O
  -3	101	15	·	115
CC(COc1ccccc1)N(CCCl)Cc1ccccc1 (centres undefined)
  6	85	5	·	87
Cn1c(SCC(=O)NC(=O)NCc2ccco2)nnc1-c1ccccc1
  -11[fluorescence artefact?]	101	-1	5	96
Cc1ncc([N+](=O)[O-])n1CCO
  -2	99	5	·	96
CC[N+](C)(C)Cc1ccccc1Br
  -6	98	14	·	97
COC(=O)Nc1nc2ccc(C(=O)c3ccccc3)cc2[nH]1
  -7	50	-3	·	37
c1ccc(-c2ccc(C(c3ccccc3)n3ccnc3)cc2)cc1 (centres undefined)
  0	88	9	·	78

Source: PubChem (several laboratories)
